AF4-AF9 inh – blocks AF4 peptide binding to human AF9 | P42568 | AlphaScreen, biotin-AF4 peptide binding to FLAG-AF9 | inhibition, % at 10 µM | actives 0.47% (n = 350,000) | AID 651704;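 active = every replicate reaching a set inhibition limit, whatever the replicate mean, cut at about 25% in these data; inconclusive = mean inhibition reaches that limit but some replicates miss it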;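 also: 0% = plate neutral control median and 100% = total signal loss; the record names both 10 and 1 µM as test concentration; the first replicate is given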
UCH37 inh – blocks the human deubiquitinase UCH37; actives 0.33% (n = 330,000); inhibition, % (concentration not given with the values); purified proteasome/UCH37, Ub-AMC cleavage fluorescence; AID 588478;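 active = mean of two replicates above 20%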;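 also: 0% = compound-free wells with enzyme and 100% = wells lacking proteasome; stock transfer was 100 nL into about 20 µL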
Target sequence (Q9Y5K5 whole entry, looked up): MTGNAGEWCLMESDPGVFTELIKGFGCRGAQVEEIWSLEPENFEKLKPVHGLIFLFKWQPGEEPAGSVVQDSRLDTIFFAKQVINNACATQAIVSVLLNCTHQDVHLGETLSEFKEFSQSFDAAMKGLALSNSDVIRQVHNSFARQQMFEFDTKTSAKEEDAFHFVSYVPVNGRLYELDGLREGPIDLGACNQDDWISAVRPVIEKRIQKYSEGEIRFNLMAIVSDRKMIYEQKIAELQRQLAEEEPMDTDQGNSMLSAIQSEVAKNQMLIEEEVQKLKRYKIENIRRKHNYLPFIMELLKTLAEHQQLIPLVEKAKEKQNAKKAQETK
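System: Proteasome-associated human UCH37 deubiquitinase; Input: 0.15 nM proteasome in added enzyme buffer; Also added: Ub-AMC substrate from 1 µM stock; Incubation: 30 min compound-proteasome preincubation then 25 min substrate reaction, room temperature; Detection: fluorescence, ex 355 nm, em 460 nm; Read-out: % inhibition of Ub-AMC cleavage fluorescence; Benchmarks: no-proteasome and no-compound wells.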
HNF4A DNA FP – change in binding of human HNF4 alpha to DNA; HNF4a-FITC DNA binding, fluorescence polarization, 1 h; actives 0.3% (n = 360,000); AID 1224865; activity change, % at 10 µM; in the data active = activity change above about 30%, passing the limit was not always enough;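 also: controls were the assay level and a saturating level of protein; the project sought stronger binding though the title names inhibitors; some compounds called inactive have numbers as strong as hits; positive values seem to mean higher polarization but the record does not say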
Target sequence (P41235 whole entry, looked up): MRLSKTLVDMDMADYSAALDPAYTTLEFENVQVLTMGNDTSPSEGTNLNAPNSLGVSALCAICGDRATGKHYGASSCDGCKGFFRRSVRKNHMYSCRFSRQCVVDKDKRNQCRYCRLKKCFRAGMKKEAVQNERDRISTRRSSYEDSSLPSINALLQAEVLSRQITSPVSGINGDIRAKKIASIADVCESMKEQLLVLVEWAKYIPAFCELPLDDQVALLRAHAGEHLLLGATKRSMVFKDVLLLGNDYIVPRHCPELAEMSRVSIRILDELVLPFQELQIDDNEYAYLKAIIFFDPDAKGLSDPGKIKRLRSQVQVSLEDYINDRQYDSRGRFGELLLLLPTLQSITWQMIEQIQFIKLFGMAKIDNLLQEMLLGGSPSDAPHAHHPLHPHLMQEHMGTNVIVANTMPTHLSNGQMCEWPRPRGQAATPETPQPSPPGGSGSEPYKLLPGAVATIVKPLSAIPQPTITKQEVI
RanGTP-Imp inh – inhibitors of RanGTP-importin-beta interaction, primary screen, biochemical, FRET, CFP-Ran, YFP-importin-beta, homogeneous; actives 1.1% (n = 300,000); inhibition, % (no concentration beside the values); cell-free CFP-Ran/YFP-importin-beta FRET ratio;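 active = most replicates above 15%; inconclusive = exactly half above 15%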;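 also: 0% = DMSO wells and 100% = Ran loaded with GDP instead of GTP; wells of about 40 µL received 100 nL stock; the first replicate is given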
FGF22 binding – FGF22 (human) thermal shift binding; AID 651658; calls only at 9.99 µM; actives 1.5% (n = 340,000); recombinant FGF22 thermal shift, SYPRO orange fluorescence; percent of sucrose octasulfate shift, DMSO zero; Q9HCT0;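 active = melting point raised past a set limit in the mean and every replicate; inconclusive = no clear call; three in four hits are not shown here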
Target sequence (Q9HCT0 whole entry, looked up): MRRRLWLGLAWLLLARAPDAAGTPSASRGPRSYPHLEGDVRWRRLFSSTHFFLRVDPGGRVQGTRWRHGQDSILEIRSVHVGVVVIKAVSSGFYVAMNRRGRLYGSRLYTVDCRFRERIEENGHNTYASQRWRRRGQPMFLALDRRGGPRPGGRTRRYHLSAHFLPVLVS
Vif TR-FRET – HIV-1 Vif–A3G interaction blockers – biochemical, TR-FRET, GST-Vif 1-94, biotin-A3G peptide, dose response retest, primary screen (AID 1117319). TR-FRET GST-Vif / biotin-A3G peptide binding; higher % means a stronger effect; test concentration not given here; strong numbers were not always called active. inhibition, %; hits with a dose series show IC50 in µM. actives 0.57% (n = 260,000);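 active = above the screen mean plus three standard deviations and confirmed in dose response; inconclusive = results disagree or hit not tested in dose response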;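 also: Vif residues 1-94 fused to GST binding biotinylated APOBEC3G peptide 110-148; 0% = full assay without inhibitor and 100% = GST in place of GST-Vif; retest series ran down from 100 µM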
Ecoli growth – E. coli growth inhibition. actives 0.21% (n = 330,000). AID 1053175. Escherichia coli growth, OD600, 23 h; stronger effect = lower value. OD600 absorbance (no concentration beside the values);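 active = OD600 absorbance below the run mean of sample wells minus 3.6 SD, in any replicate, cut at about 0.56 in these data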;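 also: stock transfer was 300 nL into about 60 µL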
* hit, by the source's call; i = inactive; ? = inconclusive; . = no result given. The list is partial; the hit share may differ from the screen's.

SMILES	AF4-AF9 inh	UCH37 inh	HNF4A DNA FP	RanGTP-Imp inh	FGF22 binding	Vif TR-FRET	Ecoli growth
C[C@@]12CCC3[C@@](CCC4[C@@]3(C)CCC[C@@]4(C)C(=O)N3CCCCC3)(CC1=O)C2 (some centres undefined)	-2.1	-0.3	-5.5	.	i	.	0.7
NCCCC[C@@H]1NC(=O)[C@H](CCC(=O)O)NC(=O)c2cc([N+](=O)[O-])cc(I)c2OCC[C@@H](C(N)=O)NC1=O	.	-0.7	-16	.	.	-4%	.
CCN1CCN(c2cc(C)c3cc(NC(=O)CCC(=O)N4CCN(c5ccccc5OC)CC4)ccc3n2)CC1	18	-121	6.2	-3.7	i	.	0.67
CN1CCN(C(=O)CSc2nc(-c3cccs3)cc(-c3cccs3)c2C#N)CC1	.	-20	12	1.3	.	-8%	0.69
Cc1nn(C(C)C(=O)NCCCN(Cc2ccccc2)C(C)C)c(=O)c2c1sc1ccccc12 (centres undefined)	0.4	0.1	-2.4	3.1	i	.	0.72
CC1=C(C)CC(C(=O)Nc2cccc(Cl)c2)C(C(=O)O)C1 (centres undefined)	.	5.6	1.0	1.0	.	0%	0.68
O=C(c1ccc(F)cc1F)N(Cc1ccccn1)Cc1ccco1	.	5.1	-1.8	3.4	.	-3%	0.65
Cc1[nH]c2ccccc2c1SCc1nnc(SCc2ccccc2)n1C	-4.9	2.9	2.5	2.8	i	2%	0.69
CO/N=C/c1ccc(Oc2ccc([N+](=O)[O-])cc2[N+](=O)[O-])c(OC)c1	.	.	3.4	-0.3	.	32%	.
CCOC(=O)C1CCCN(Cc2cn[nH]c2-c2ccc(F)cc2F)C1 (centres undefined)	-1.1	1.5	-3.5	3.1	i	22%	0.71
COc1cccc(OC)c1C(=O)Nc1ccc(S(=O)(=O)Nc2ncccn2)cc1	-30	3.1	0.4	5.5	i	5%	0.66
COC(=O)c1c(NC(=O)CN2CCC3(O)CCCCC3C2c2ccc(OC)cc2OC)sc(C)c1C (centres undefined)	-1.4	2.6	6.3	-1.7	i	.	0.72
CCCOc1ccc(NC(N)=O)cc1OCCC	.	5.5	3.8	-0.1	.	1%	0.68
CCOC(=O)c1c(-c2cc(OC)c(OC)c(OC)c2)csc1NC(=O)c1ccccc1	-5.6	.	3.5	.	i	0%	.
COc1ccc(/C=C/C(=O)c2ccc(C)c([N+](=O)[O-])c2)cc1O	6.5	1.1	0.7	1.4	i	.	0.67

Looked up above.
CCOC(=O)c1c(-c2cc(OC)c(OC)c(OC)c2)csc1NC(=O)c1ccccc1 – Vif TR-FRET: 0%
CCCOc1ccc(NC(N)=O)cc1OCCC – UCH37 inh: 5.5
NCCCC[C@@H]1NC(=O)[C@H](CCC(=O)O)NC(=O)c2cc([N+](=O)[O-])cc(I)c2OCC[C@@H](C(N)=O)NC1=O – UCH37 inh: -0.7

Part of the list above, with two lines to a compound:
Each structure is followed by: AF4-AF9 inh	UCH37 inh	HNF4A DNA FP	RanGTP-Imp inh	FGF22 binding	Vif TR-FRET	Ecoli growth
COc1ccc(/C=C/C(=O)c2ccc(C)c([N+](=O)[O-])c2)cc1O
 : 6.5	1.1	0.7	1.4	i	.	0.67
COC(=O)c1c(NC(=O)CN2CCC3(O)CCCCC3C2c2ccc(OC)cc2OC)sc(C)c1C (centres undefined)
 : -1.4	2.6	6.3	-1.7	i	.	0.72
CCCOc1ccc(NC(N)=O)cc1OCCC
 : .	5.5	3.8	-0.1	.	1%	0.68

Further records.
SMILES	AF4-AF9 inh	UCH37 inh	HNF4A DNA FP	RanGTP-Imp inh	FGF22 binding	Vif TR-FRET	Ecoli growth
CSc1ccc(C(=O)C2CCCN(C(=O)c3cccc(N4CCOCC4)c3)C2)cc1 (centres undefined)	-1.5	2.0	-3.8	1.0	i	19%	0.68
O=C(Oc1cc2oc(=O)c3c(c2cc1Cl)CCCC3)c1cccs1	-0.9	-179	2.8	.	i	-11%	0.73
CCN(CCCNC(=O)CNC(=O)c1nn(-c2ccc(OC)c(OC)c2)c(=O)c2ccccc12)c1ccccc1	8.8	-3.4	-1.7	2.5	i	.	0.64
CSc1nc(/C=C2\C=Nc3ccccc32)c(O)n1C	.	.	7.9	8.6	.	8%	.
Cc1nc(-c2ccccc2)sc1C(=O)O	-3.1	5.0	0.0	1.1	i	-16%	0.64
COc1ccc(NC(=O)CN2CCN(c3c(C)cc(C)cc3C)CC2)cc1	-1.5	0.2	1.8	-1.5	i	.	0.63
O=C(NNC1=NS(=O)(=O)c2ccccc21)c1ccc([N+](=O)[O-])cc1	0.0	11	2.7	-1.7	i	-3%	0.67
COCCNc1nnc(SCC(=O)NC(=O)c2ccccc2OC)s1	-2.0	2.7	-3.9	-1.3	i	1%	0.71
CCOC(=O)/C(C#N)=C\N(C)C	.	-0.1	0.5	-2.3	.	11%	0.65
CSc1sc(C(=O)O)c2c1C(=O)CCC2	.	7.4	2.3	0.8	.	-4%	0.74
CCN(C(=O)c1ccccc1Cl)c1ccccc1	.	1.1	-0.7	-1.3	.	2%	0.7
COC(=O)c1sccc1NC(=O)Nc1ccc(OC)c(OC)c1	3.3	3.4	-1.7	-3.3	i	8%	0.73
O=C(COC(=O)c1ccc(Br)o1)Nc1cccc(S(=O)(=O)N2CCOCC2)c1	-2.7	0.3	5.7	.	i	4%	0.72
O=C(CCC1CCCCC1)NCCN1CCOCC1	0.2	2.0	-2.2	-4.7	i	5%	0.6
O=C1C=C(O)c2cccc3cccc1c23	-10	.	-18	-0.1	i	.	.
COc1cc(NC(=O)CCC2CCCC2)cc(-n2cnnn2)c1	.	0.0	3.5	6.3	.	-5%	0.72
O=C(NCCCn1ccnc1)c1ccc(F)cc1	-8.6	4.9	0.9	4.9	i	4%	0.7
CC(C)COP(=O)(c1ccc(N(C)C)cc1)C(O)c1ccc(N(C)C)cc1 (centres undefined)	12	6.8	-4.4	-0.6	i	-1%	0.66
CCCSc1nnc(CSc2nc3ccccc3s2)n1-c1ccccc1	.	1.7	4.2	1.4	.	1%	0.7
CC1=C(C(=O)N2CCCCCC2)CC(CC(=O)NCCN2CCOCC2)C(=O)N1Cc1ccccc1 (centres undefined)	-0.6	.	1.7	.	i	.	.
COC(=O)c1sccc1Oc1ccc(F)cc1[N+](=O)[O-]	.	1.9	-1.2	3.7	.	5%	0.68
CC(C)OC(=O)c1cn(-c2ccccc2)nc1-c1ccco1	.	0.5	0.7	1.2	.	13%	0.7
CNC(=O)c1ccsc1NC(=O)C1CCN(S(=O)(=O)c2cccs2)CC1	0.8	2.1	-3.1	8.1	i	6%	0.63
CN(C)Cc1c(C(=O)N/N=C/c2ccccc2OCc2ccc(F)cc2)nnn1-c1nonc1N	?	.	-1.1	3.8	i	.	.
C=CCn1c2ccccc2n2nc(C)c(=O)nc12	.	-72	0.9	4.3	.	-8%	0.71
Cc1onc(C(N)=O)c1C(=O)Nc1ncc(C(F)(F)F)cc1Cl	-0.6	2.6	-1.0	-1.4	i	.	0.7
O=C(O)C1=C(C(=O)Nc2cccc(C(F)(F)F)c2)CCCC1	-0.5	4.7	0.1	0.1	.	.	0.71
CC(=O)Nc1cccc(-c2ccnc3c2CC(C(=O)Nc2cccc(NS(C)(=O)=O)c2)O3)c1 (centres undefined)	5.1	.	0.8	.	i	.	.
COc1ccc(C(=O)NCC(=O)OCC(=O)c2ccc3c(c2)NC(=O)CO3)cc1OC	-2.2	0.0	3.9	?	i	.	0.65
Cc1cccc(NC(=O)c2ccc(Cl)c(NC(=O)c3ccncc3)c2)c1C	0.2	3.3	1.6	12	.	2%	0.72
Cc1ccc(S(=O)(=O)/N=C(/c2ccccc2)N(C)C)c(C)c1	1.3	.	1.4	3.9	i	.	.
COc1cccc(N2CCN(CC(=O)Nc3ccccc3C(=O)NCc3ccccc3)CC2)c1	5.9	-0.2	5.9	.	i	-10%	0.67
C=CCOc1ccc(CN(C)CC(O)COc2cccc3ccccc23)cc1 (centres undefined)	1.2	5.0	-2.2	4.5	i	5%	0.66
N#Cc1ccc(C(=O)N2CCCCC2c2cc(C(=O)NCc3ccccc3)no2)cc1 (centres undefined)	-5.1	.	1.4	.	i	.	.
CCCn1c(=O)c2sccc2n2c(CCCC(=O)NC3CCN(Cc4ccccc4)CC3)nnc12	-2.8	1.9	-2.3	-0.6	i	.	0.65
CC1CCCCC1=NNC(=O)c1ccccc1 (centres undefined)	-4.6	.	2.2	.	i	-1%	.
CCc1cccc(OCCn2nc(C(=O)O)c3ccccc3c2=O)c1	-1.1	3.8	-3.2	7.1	i	.	0.66
Cn1ccnc1SCC(=O)NCC(=O)Nc1ccc(F)c(F)c1F	0.3	1.0	0.7	.	i	.	0.72
NC1=NC(=O)/C(=C/c2cn(CCC(=O)O)nc2-c2ccc(F)cc2)S1	3.1	15	5.0	1.7	i	.	0.71
CCCCc1cc(=O)oc2cc(OC(C)C(=O)NCCN3CCOCC3)c(Cl)cc12 (centres undefined)	-4.2	-15	-2.7	-0.6	i	1%	0.68
CCOc1ccc(C2C(C#N)=C(N)N(c3sc4c(c3C#N)CCCC4)C3=C2C(=O)CCC3)cc1 (centres undefined)	.	4.9	3.5	-2.4	.	?	0.72
COc1ccc(-n2c(SCC(=O)c3c(N)n(C)c(=O)n(C)c3=O)nc3ccccc32)cc1	.	3.1	-1.6	.	.	8%	0.82
COc1ccc([C@@H]2CC=C(C(=O)O)[C@H](c3ccc(C(C)(C)C)cc3)N2S(=O)(=O)c2ccc(C)cc2)cc1OC	-0.2	1.9	2.5	.	i	.	0.66
CC(=O)c1cc2c(cc1NC(=O)CN1CCOCC1)OCO2	.	-5.0	4.1	3.9	.	5%	0.68
COc1ccc(S(=O)(=O)CC(=O)c2cc(C)c(O)c(C)c2)cc1	-1.3	6.1	-1.6	1.7	i	4%	0.63
CCOC(=O)NCc1ccc2[nH]c(C)cc2c1	-2.8	1.5	-1.1	-5.2	i	.	0.79
CC1CN(S(=O)(=O)c2cccc(C(=O)OCC(=O)c3cccs3)c2)CC(C)O1 (centres undefined)	.	1.9	-0.8	1.4	.	?	0.71
COc1ccc(CN2CCN(C(=O)CC(C)C)CC2)c2ccccc12	.	2.5	0.5	?	.	0%	0.72
Cc1cc2c(cc1S(=O)(=O)CCC(=O)N(C)C1CCCCC1)OCC(=O)N2	-12	3.0	3.8	0.9	i	.	0.8
CC1(C)C2CC[C@]3(C)C(CC=C4[C@@H]5C[C@](C)(CO)CC[C@]5(C(=O)O)CC[C@]43C)[C@@]2(C)CC[C@@H]1O (some centres undefined)	.	1.0	5.9	3.1	.	.	0.7
Cc1cc(C)c2c(=O)n(CC(=O)NC3CCCC3)sc2n1	-23	4.1	0.8	-1.9	i	-5%	0.66
CC(=O)COc1cccc2ccc(/C=C/c3ccc(Br)s3)nc12	-3.6	-34	4.9	-1.0	i	4%	0.63
O=C(CN1CCCc2ccccc21)N/N=C/c1ccccc1O	.	.	-3.0	3.2	.	-1%	.
CCOC(=O)C(CC)n1cnc2c(cnn2-c2ccc(Cl)cc2)c1=O (centres undefined)	.	-6.5	-2.5	-2.3	.	-3%	0.75
CCCCn1nc2cc(C(=O)NCc3ccccc3OC)ccc2c1OCC	-30	-27	-0.1	0.2	i	-2%	0.65
Cc1[nH]cnc1CSCc1ccc(Cl)cc1	-7.1	4.8	0.3	-4.0	i	.	0.67
CC1=C(C#N)C(c2cccnc2)C2=C(CC(c3ccc(Cl)cc3)CC2=O)N1 (centres undefined)	.	-479	1.0	1.5	.	2%	0.73
COc1ccc(OC)c(N=c2ssnc2Cl)c1	.	3.9	-0.5	1.8	.	28%	0.66
CCN(CC)S(=O)(=O)c1ccc2c(c1)nc(CCC(=O)OCC(=O)Nc1cc(OC)cc(OC)c1)n2C	-20	2.2	3.5	-0.3	i	-5%	0.62
